High-throughput results (PubChem BioAssay)
Ecoli rRNA inh: inhibitors of bacterial rRNA selective over humanized ribosomes; E. coli WT GFP vs humanized-ribosome RFP mutants, fluorescence, 24 h; stronger effect = lower value; DMSO median 0, no signal -100; GFP signal change (wild-type ribosome), % (no concentration beside the values); 350,000 tested, 1.6% active; AID 720706;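 active = significant combined selectivity score with lowered wild-type GFP, culture density cut under 30%, mutant RFP and density less affected; inactive = any of these conditions unmet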; note: one replicate is shown; some compounds called inactive have numbers as strong as hits
Vif A3G: HIV-1 Vif–A3G interaction blockers – biochemical, TR-FRET, GST-Vif 1-94, biotin-A3G peptide, dose response retest, primary screen (AID 1117319); TR-FRET GST-Vif / biotin-A3G peptide binding; higher % means a stronger effect; test concentration not given here; strong numbers were not always called active; inhibition, %; hits with a dose series show IC50 in µM; 260,000 tested, 0.57% active;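 active = above the screen mean plus three standard deviations and confirmed in dose response; inconclusive = results disagree or hit not tested in dose response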;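 note: Vif residues 1-94 fused to GST binding biotinylated APOBEC3G peptide 110-148; 0% = full assay without inhibitor and 100% = GST in place of GST-Vif; retest series ran down from 100 µM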
HNF4A DNA FP: change in binding of human HNF4 alpha to DNA | activity change, % at 10 µM | P41235 | 360,000 tested, 0.3% active | HNF4a-FITC DNA binding, fluorescence polarization, 1 h; in the data active = activity change above about 30%, passing the limit was not always enough;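 note: controls were the assay level and a saturating level of protein; the project sought stronger binding though the title names inhibitors; some compounds called inactive have numbers as strong as hits; positive values seem to mean higher polarization but the record does not say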
Target sequence (P41235 whole entry, looked up): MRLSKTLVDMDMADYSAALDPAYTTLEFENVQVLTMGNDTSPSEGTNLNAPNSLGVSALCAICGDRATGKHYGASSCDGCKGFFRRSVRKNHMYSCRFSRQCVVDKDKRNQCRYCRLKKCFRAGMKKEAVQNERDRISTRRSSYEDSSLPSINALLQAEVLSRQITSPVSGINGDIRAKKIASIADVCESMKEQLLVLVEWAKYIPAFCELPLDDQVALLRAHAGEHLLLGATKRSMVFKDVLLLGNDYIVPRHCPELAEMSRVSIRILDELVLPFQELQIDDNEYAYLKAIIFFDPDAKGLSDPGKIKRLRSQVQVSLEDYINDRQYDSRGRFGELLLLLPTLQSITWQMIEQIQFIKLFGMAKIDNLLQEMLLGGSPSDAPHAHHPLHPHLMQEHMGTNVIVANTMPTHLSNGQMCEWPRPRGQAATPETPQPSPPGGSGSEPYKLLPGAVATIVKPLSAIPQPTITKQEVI
ALR inh: blocks human ALR sulfhydryl oxidase activity | P55789 | purified ALR, DTT oxidation, H2O2 HRP-luminol luminescence | inhibition, % (no concentration beside the values) | 290,000 tested, 3.8% active;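 active = mean and each replicate at 75% or more; inconclusive = only one of the two met; inactive = neither met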;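 note: stock transfer was 7.5 nL into about 7.5 µL; 0% = neutral wells and 100% = wells with inactivated enzyme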
Target sequence (P55789 whole entry, looked up): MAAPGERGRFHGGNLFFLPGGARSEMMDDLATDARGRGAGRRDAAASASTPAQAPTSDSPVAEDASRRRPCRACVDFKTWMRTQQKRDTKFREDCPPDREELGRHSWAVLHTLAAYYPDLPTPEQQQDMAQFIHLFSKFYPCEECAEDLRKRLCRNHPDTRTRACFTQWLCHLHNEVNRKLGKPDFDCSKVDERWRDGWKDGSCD
E coli growth: blocks Escherichia coli growth | OD600, 23 h; stronger effect = lower value | 330,000 tested, 0.21% active | OD600 absorbance (no concentration beside the values);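 active = OD600 absorbance below the run mean of sample wells minus 3.6 SD, in any replicate, cut at about 0.56 in these data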;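 note: stock transfer was 300 nL into about 60 µL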
MLL AF4-AF9 inh: inhibitors of human MLL-AF4/AF9 interaction | P42568 | AlphaScreen, biotin-AF4 peptide binding to FLAG-AF9 | inhibition, % at 10 µM | 350,000 tested, 0.47% active | AID 651704;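 active = every replicate reaching a set inhibition limit, whatever the replicate mean, cut at about 25% in these data; inconclusive = mean inhibition reaches that limit but some replicates miss it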;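 note: 0% = plate neutral control median and 100% = total signal loss; the record names both 10 and 1 µM as test concentration; the first replicate is given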
FGF22 binding: binders of recombinant human FGF22 by thermal shift. Q9HCT0. SYPRO orange fluorescence; percent of sucrose octasulfate shift, DMSO zero. calls only at 9.99 µM. 340,000 tested, 1.5% active;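 active = melting point raised past a set limit in the mean and every replicate; inconclusive = no clear call; three in four hits are not shown here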
Target sequence (Q9HCT0 whole entry, looked up): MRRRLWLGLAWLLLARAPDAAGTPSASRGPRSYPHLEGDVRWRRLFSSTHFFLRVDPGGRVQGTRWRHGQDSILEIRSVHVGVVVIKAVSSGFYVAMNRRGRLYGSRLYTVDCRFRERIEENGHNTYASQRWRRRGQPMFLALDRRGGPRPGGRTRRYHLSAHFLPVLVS
Ecoli rRNA inh OD600: further read-out of Ecoli rRNA inh, marked with its call; OD600 change, %; measured here: OD600 growth;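 optical density of the mix in the first replicate; 0 = DMSO median and -100 = no signal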
Ecoli rRNA inh RFP: second read-out of Ecoli rRNA inh, no call of its own (marks repeat the call); RFP signal change, %; measured here: RFP humanized mutant strains;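 first replicate; 0 = DMSO median and -100 = no signal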
An asterisk follows results filed as active; & = joins results of further samples. Only part of the results is shown. The share of hits here may be higher or lower than overall.

How did O=C(COC(=O)CNC(=O)C1CCCCC1)Nc1ccc(Cl)cc1F do in these assays?
Ecoli rRNA inh: 7; HNF4A DNA FP: -2.8; ALR inh: 47; E coli growth: 0.68; MLL AF4-AF9 inh: -3.1; FGF22 binding: inactive; Ecoli rRNA inh OD600: 1; Ecoli rRNA inh RFP: 3.1

What do the screens show for `O=C(NCc1ccco1)c1cc(=O)c2ccccc2o1`?
Ecoli rRNA inh: -1; Vif A3G: 26%; HNF4A DNA FP: -0.2; ALR inh: 0; E coli growth: 0.67; MLL AF4-AF9 inh: 1.1; FGF22 binding: inactive; Ecoli rRNA inh OD600: 3; Ecoli rRNA inh RFP: -0.5

What do the screens show for `CCCN1CCN(CCCNC(=O)c2ccc(CS(=O)c3ccc(OC)cc3)o2)CC1` (centres undefined)?
Ecoli rRNA inh: -3; HNF4A DNA FP: -3.7; ALR inh: -7; E coli growth: 0.68; MLL AF4-AF9 inh: -17; FGF22 binding: inactive; Ecoli rRNA inh OD600: -2; Ecoli rRNA inh RFP: 5.7

How did O=C(Nc1cccc2c1[nH]c1ccccc12)C(F)(F)F do in these assays?
Vif A3G: -2%; HNF4A DNA FP: 3.6; ALR inh: -5; E coli growth: 0.66

What do the screens show for `Cc1nc(SCC(=O)Nc2c(C)n(C)n(-c3ccccc3)c2=O)n[nH]1`?
Vif A3G: -2%; HNF4A DNA FP: -1.2; ALR inh: -1; E coli growth: 0.7

What do the screens show for `CCOC(=O)N1CCN(C(=O)CSc2nnc(-c3cc(OC)ccc3OC)o2)CC1`?
Vif A3G: 7%&11%; HNF4A DNA FP: -1.4; E coli growth: 0.79

What do the screens show for `COc1ccccc1C(=O)N1CCC(C(=O)c2ccc(F)cc2)CC1`?
Vif A3G: 7%; HNF4A DNA FP: 4.1; ALR inh: -8; E coli growth: 0.68

Results for O=C(N/N=C/c1ccc([N+](=O)[O-])cc1)C(=O)N1CCCC1 ?
Ecoli rRNA inh: 18; Vif A3G: 0%; HNF4A DNA FP: -1.8; ALR inh: -11; MLL AF4-AF9 inh: -0.9; FGF22 binding: inactive; Ecoli rRNA inh OD600: 7; Ecoli rRNA inh RFP: -0.1

What do the screens show for `CN(CC(=O)Nc1ccc(F)cc1)C(=O)c1cn(-c2ccccc2)nc1-c1cccs1`?
Ecoli rRNA inh: -21; Vif A3G: 2%; HNF4A DNA FP: 0.3; ALR inh: -4; E coli growth: 0.64; MLL AF4-AF9 inh: -0.1; FGF22 binding: inactive; Ecoli rRNA inh OD600: -59; Ecoli rRNA inh RFP: 26

What do the screens show for `C[C@H]1CCCCO[C@@H](CN(C)C(=O)Cc2ccccc2)[C@@H](C)CN([C@@H](C)CO)C(=O)c2cc(NS(=O)(=O)c3cccs3)ccc2O1`?
Ecoli rRNA inh: -4; MLL AF4-AF9 inh: 6.8; FGF22 binding: inactive; Ecoli rRNA inh OD600: -15; Ecoli rRNA inh RFP: 2.2

Results for Cc1cccc(NC(=O)c2sc(-c3ccccc3)nc2-c2ccc([N+](=O)[O-])cc2)c1 ?
Ecoli rRNA inh: 9; Vif A3G: -9%; HNF4A DNA FP: -3.0; ALR inh: -3; E coli growth: 0.72; MLL AF4-AF9 inh: -0.7; FGF22 binding: inactive; Ecoli rRNA inh OD600: 11; Ecoli rRNA inh RFP: -0.6

What do the screens show for `C[C@@H]1CCCCO[C@@H](CN(C)C(=O)C2CCCCC2)[C@H](C)CN([C@@H](C)CO)C(=O)c2cc(NC(=O)c3ccccc3)ccc2O1`?
Ecoli rRNA inh: -7; MLL AF4-AF9 inh: -4.7; FGF22 binding: inactive; Ecoli rRNA inh OD600: -9; Ecoli rRNA inh RFP: -1.1

How did COCc1cccc(C2=CC(=O)C[C@H](c3ccc(F)cc3)C2)c1 do in these assays?
Ecoli rRNA inh: -20; HNF4A DNA FP: 0.4; ALR inh: 1; MLL AF4-AF9 inh: -5.5; FGF22 binding: inactive; Ecoli rRNA inh OD600: -31; Ecoli rRNA inh RFP: -11

What do the screens show for `COc1ccc(CO[C@@H]2O[C@H](CO)[C@@H](O)[C@H](O)[C@H]2NC(C)=O)cc1OC`?
Ecoli rRNA inh: 25; Vif A3G: -2%; HNF4A DNA FP: 0.8; ALR inh: -2; E coli growth: 0.68; MLL AF4-AF9 inh: -4.7; FGF22 binding: inactive; Ecoli rRNA inh OD600: 14; Ecoli rRNA inh RFP: 2.0

How did CN(C)S(=O)(=O)c1ccc(N2CCCC2)c(C(=O)N2CCN(S(=O)(=O)c3ccc(F)c(F)c3)CC2)c1 do in these assays?
Ecoli rRNA inh: -4; HNF4A DNA FP: 7.7; E coli growth: 0.68; MLL AF4-AF9 inh: -6.8; FGF22 binding: inactive; Ecoli rRNA inh OD600: -5; Ecoli rRNA inh RFP: 2.4

How did CCOC(=O)c1cnc2ccc(F)cc2c1Nc1ccc2c(c1)OCCO2 do in these assays?
Ecoli rRNA inh: 7; Vif A3G: 13%; HNF4A DNA FP: -0.2; ALR inh: 13; E coli growth: 0.72; MLL AF4-AF9 inh: 5.5; FGF22 binding: inactive; Ecoli rRNA inh OD600: 13; Ecoli rRNA inh RFP: 2.5

Results for CC1CCN(C(=O)CNC(=O)c2ccc(Cl)cc2Cl)CC1 ?
Vif A3G: 0%; HNF4A DNA FP: 2.7; ALR inh: -10; E coli growth: 0.73

Results for Clc1ccc(-n2nnnc2-c2cnc(-c3ccncc3)nc2-c2cccs2)cc1 ?
Vif A3G: 6%; HNF4A DNA FP: 2.9; E coli growth: 0.7

How did CC(=O)c1ccc(NC(=O)COC(=O)c2c3c(nc4ccccc24)/C(=C\c2cccs2)CCC3)cc1 do in these assays?
Ecoli rRNA inh: 2; Vif A3G: -3%; HNF4A DNA FP: 3.2; ALR inh: 12; E coli growth: 0.74; MLL AF4-AF9 inh: 3.7; FGF22 binding: inactive; Ecoli rRNA inh OD600: 30; Ecoli rRNA inh RFP: 30

How did CC1(C)Cc2ccccc2-c2nnc(SCc3ccccc3)n21 do in these assays?
Ecoli rRNA inh: -36; HNF4A DNA FP: -1.7; E coli growth: 0.63; MLL AF4-AF9 inh: -0.6; FGF22 binding: inactive; Ecoli rRNA inh OD600: -36; Ecoli rRNA inh RFP: -6.0

Next part; the last 2 above are carried over.
How did CC(=O)c1ccc(NC(=O)COC(=O)c2c3c(nc4ccccc24)/C(=C\c2cccs2)CCC3)cc1 do in these assays?
Ecoli rRNA inh: 2; Vif A3G: -3%; HNF4A DNA FP: 3.2; ALR inh: 12; E coli growth: 0.74; MLL AF4-AF9 inh: 3.7; FGF22 binding: inactive; Ecoli rRNA inh OD600: 30; Ecoli rRNA inh RFP: 30

How did CC1(C)Cc2ccccc2-c2nnc(SCc3ccccc3)n21 do in these assays?
Ecoli rRNA inh: -36; HNF4A DNA FP: -1.7; E coli growth: 0.63; MLL AF4-AF9 inh: -0.6; FGF22 binding: inactive; Ecoli rRNA inh OD600: -36; Ecoli rRNA inh RFP: -6.0

How did CCc1cc2c(=O)c(-c3ccc(F)cc3)c(C)oc2cc1OCC(=O)O do in these assays?
Ecoli rRNA inh: -4; Vif A3G: 0%; HNF4A DNA FP: -1.1; ALR inh: 1; E coli growth: 0.7; MLL AF4-AF9 inh: -3.3; FGF22 binding: inactive; Ecoli rRNA inh OD600: -4; Ecoli rRNA inh RFP: 0.2

What do the screens show for `CN(CC(=O)Nc1cccc(F)c1)C(=O)c1ccccc1OCC(=O)Nc1cccc(C(F)(F)F)c1`?
Ecoli rRNA inh: 4; Vif A3G: 6%; HNF4A DNA FP: -5.0; ALR inh: -9; E coli growth: 0.71; MLL AF4-AF9 inh: -0.7; Ecoli rRNA inh OD600: -2; Ecoli rRNA inh RFP: -3.1

What do the screens show for `Cc1ccc(S(=O)(=O)N[C@@H]2CC[C@H](CC(=O)O)O[C@H]2CO)cc1`?
Ecoli rRNA inh: 3; MLL AF4-AF9 inh: -2.8; FGF22 binding: inactive; Ecoli rRNA inh OD600: -4; Ecoli rRNA inh RFP: -2.2

What do the screens show for `O=C(CSc1nc2c(c(=O)n1-c1ccc(Cl)cc1)SCC2)NCc1ccco1`?
Vif A3G: 3%; HNF4A DNA FP: 6.9; ALR inh: 32; E coli growth: 0.7

What do the screens show for `O=C(CCN1CCCCC1)Nc1cccc(Br)c1`?
Ecoli rRNA inh: 5; Vif A3G: -4%; HNF4A DNA FP: -1.5; ALR inh: -32; E coli growth: 0.65; MLL AF4-AF9 inh: -3.1; FGF22 binding: inactive; Ecoli rRNA inh OD600: 8; Ecoli rRNA inh RFP: -0.6

Results for COc1ccc(N=Cc2ccc(N(CCC#N)CCC#N)cc2)cc1 ?
Ecoli rRNA inh: 18; HNF4A DNA FP: 2.7; MLL AF4-AF9 inh: 2.9; FGF22 binding: inactive; Ecoli rRNA inh OD600: 30; Ecoli rRNA inh RFP: -1.4

How did O=C(Nc1cc(C(F)(F)F)ccc1N1CCOCC1)C1=NN(c2ccccc2)C(=O)CC1 do in these assays?
Ecoli rRNA inh: -1; Vif A3G: 2%; HNF4A DNA FP: 1.0; ALR inh: -7; E coli growth: 0.71; MLL AF4-AF9 inh: 11; FGF22 binding: inactive; Ecoli rRNA inh OD600: 5; Ecoli rRNA inh RFP: -2.4

How did CCn1c(COc2ccccc2)nnc1SCC(=O)c1cccc([N+](=O)[O-])c1 do in these assays?
Ecoli rRNA inh: -24*; Vif A3G: inconclusive; HNF4A DNA FP: -4.4; ALR inh: 0; E coli growth: 0.69; MLL AF4-AF9 inh: 1.3; FGF22 binding: inactive; Ecoli rRNA inh OD600: -20*; Ecoli rRNA inh RFP: 1.8*

What do the screens show for `O=C(Nc1ccncc1)c1ccccc1[N+](=O)[O-]`?
Ecoli rRNA inh: 11; HNF4A DNA FP: 3.2; E coli growth: 0.7; MLL AF4-AF9 inh: -1.0; FGF22 binding: inactive; Ecoli rRNA inh OD600: 1; Ecoli rRNA inh RFP: -4.9

What do the screens show for `CCC(Oc1ccc(C)cc1)C(=O)Nc1ccc(S(=O)(=O)Nc2nccs2)cc1` (centres undefined)?
Ecoli rRNA inh: -3; HNF4A DNA FP: 1.3; ALR inh: -5; E coli growth: 0.66; MLL AF4-AF9 inh: -0.9; FGF22 binding: inactive; Ecoli rRNA inh OD600: -23; Ecoli rRNA inh RFP: -1.0

What do the screens show for `CCC(Sc1ncccc1Nc1ccccn1)C(=O)O` (centres undefined)?
Ecoli rRNA inh: 19; HNF4A DNA FP: 2.9; ALR inh: -28; E coli growth: 0.63; MLL AF4-AF9 inh: -2.5; FGF22 binding: inactive; Ecoli rRNA inh OD600: -2; Ecoli rRNA inh RFP: 3.8

What do the screens show for `O=C(CSc1nnc(-c2ccco2)n1Cc1ccccc1)NC(=O)NCc1ccccc1`?
Vif A3G: -1%; HNF4A DNA FP: 0.2; ALR inh: 0; E coli growth: 0.73

What do the screens show for `Cn1c(=O)c2c(nc(Cc3ccc(N)cc3)n2C)n(C)c1=O`?
Ecoli rRNA inh: 2; Vif A3G: 3%; HNF4A DNA FP: -1.8; ALR inh: 8; MLL AF4-AF9 inh: -0.7; FGF22 binding: inactive; Ecoli rRNA inh OD600: 11; Ecoli rRNA inh RFP: 2.3

Results for COC(=O)CN1C(=O)C(O)(CC(=O)c2ccc(C)cc2)c2cc(Br)ccc21 (centres undefined) ?
Ecoli rRNA inh: -6; Vif A3G: 8%; HNF4A DNA FP: 3.2; ALR inh: -35; E coli growth: 0.74; MLL AF4-AF9 inh: 4.4; FGF22 binding: inactive; Ecoli rRNA inh OD600: -1; Ecoli rRNA inh RFP: -8.8

What do the screens show for `C[C@H](CO)N1C[C@H](C)[C@@H](CN(C)CC2CC2)OCCCC[C@H](C)Oc2ccc(NC(=O)CCC(F)(F)F)cc2C1=O`?
Ecoli rRNA inh: 8; MLL AF4-AF9 inh: -6.8; FGF22 binding: inactive; Ecoli rRNA inh OD600: 7; Ecoli rRNA inh RFP: -2.2
